# Screens (PubChem BioAssay)
# VDR inh = inhibitors of human vitamin D receptor. Potency, µM, inactives show max response, negative = inhibition, hits mostly inhibitors. P11473. VDR-SRC2-3 peptide fluorescence polarization, 2 h. hit rate 0.93% among 400,000. AID 504847; active = well fitted inhibition curve with a large enough effect; inconclusive = small, poorly fitted or top-dose-only effect, or another doubt; inactive = no such curve, though single readings can be large or run the other way; also: series mostly up to about 120 µM
# Target sequence (P11473 whole entry, looked up): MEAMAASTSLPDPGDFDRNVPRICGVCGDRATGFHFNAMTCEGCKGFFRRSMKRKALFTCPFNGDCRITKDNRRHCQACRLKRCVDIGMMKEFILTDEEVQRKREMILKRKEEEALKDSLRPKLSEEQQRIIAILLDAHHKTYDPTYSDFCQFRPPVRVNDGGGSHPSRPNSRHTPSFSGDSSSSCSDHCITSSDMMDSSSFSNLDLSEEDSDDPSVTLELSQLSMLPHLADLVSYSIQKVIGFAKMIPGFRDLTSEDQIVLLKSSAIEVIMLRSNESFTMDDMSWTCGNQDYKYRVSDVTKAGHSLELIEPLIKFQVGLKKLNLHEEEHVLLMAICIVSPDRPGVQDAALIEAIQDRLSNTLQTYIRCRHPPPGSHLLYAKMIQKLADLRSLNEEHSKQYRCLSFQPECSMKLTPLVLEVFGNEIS
#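 Inhibition of the VDR/SRC2-3 peptide interaction is quantified by fluorescence polarization. Compounds (23 nl, pintool) incubate with the reagents for 2 hours at ambient room temperature.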
# * marks the source's active call; other numbers are inactive results; ? = inconclusive; & = joins results of further samples. % is scaled to controls: 0 for no effect and ±100 for the full control effect; potency is read from the fitted curve at half-maximal effect. These rows are one share of the data. The share of hits here may be higher or lower than overall.
SMILES,VDR inh
Cc1cccc(NC(=O)Cn2c(=O)oc3ccccc32)c1C,12%
CCC1CCC2(CC1)NC(=O)N(CC(=O)NCc1ccccc1Cl)C2=O (stereo not given),-2%
OC(COCc1cccs1)CN1CCN(c2ccccc2Cl)CC1 (stereo not given),-6%
CCc1nnc(NC(=O)CCN2C(=O)C3CCCCC3C2=O)s1 (stereo not given),-8%
COc1ccccc1C(=O)n1nc(-c2ccccc2)nc1N,4%
COc1ccc(NC(=O)c2ccc(-n3nc(C)c[n+]3[O-])cc2)cc1,7%
CC(=O)Nc1cccc(/C(C)=N\NC(=O)c2ccc(Cn3nc([N+](=O)[O-])c(Cl)c3C)o2)c1,?
C=CC[C@H]1CC(Cc2ccccc2)=C[C@H](CC=C)N1,?
O=S(=O)(c1ccccc1)N1CCN(C(=S)NCc2ccccc2)CC1,-5%
O=C(C1CN(S(=O)(=O)c2ccccc2)CCN1S(=O)(=O)c1ccccc1)N1CCCCCC1 (stereo not given),-2%
COc1ccccc1CC(NC(C)=O)C(=O)N1CCN(C(=O)Nc2ccccc2Cl)CC1 (stereo not given),0%
CC(C)Oc1cccc(-c2cc(C(=O)NN3CCOCC3)c3ccccc3n2)c1,-17%
COC(=O)C1(C(=O)OC)NOC2C(=O)N(c3ccccc3)C(=O)C21 (stereo not given),4%
Cc1ccc(Nc2nc(N)nc(CSC(=S)N3CCOCC3)n2)cc1,15%
CC#CCCCC(=O)Nc1cccc(C(=O)O)c1,-2%
Cc1ccccc1OCC(=O)OCc1cc(=O)n2nc(-c3cccs3)sc2n1,10%
CN(C)c1ccc(/C=C(\C#N)c2ccccc2)cc1,-4%
Cc1nc2cc(C(=O)OCC(=O)NC(C)C(C)C)ccc2n1-c1ccccc1 (stereo not given),15%
O=C(NCc1ccccc1Cl)c1cc2c(s1)-c1ccc(Cl)cc1SC2,1%
Cc1oc2ccc(OCc3ccc(Cl)cc3)cc2c1C(=O)O,1%
O=C(c1ccco1)N1CCN(C(=O)C2CCCc3c2[nH]c2ccc(Cl)cc32)CC1 (stereo not given),3%
CCC(Oc1ccccc1)C(=O)Nc1ccsc1C(=O)OC (stereo not given),-6%
CCC1Oc2nc(SC)nnc2-c2ccccc2N1C(=O)c1ccccc1 (stereo not given),-11%
COc1ccc(Cn2cnc3c(NS(C)(=O)=O)c(C)c(C)cc32)cc1,0%
COc1ccc(CCNC(=S)NCc2ccc(Cl)c(Cl)c2)cc1OC,-13%
CC(C)(C=O)C1=CC(=O)c2ccccc2C1=O,45µM*
Cc1ccc2nc(N3CCN(C(=O)C4COc5ccccc5O4)CC3)sc2c1 (stereo not given),-2%
CCOC(=O)c1ccc(NC(=O)c2nn(C)cc2Br)cc1,2%
COc1ccc(S(=O)(=O)N2CC(C(=O)O)Oc3ccccc32)cc1 (stereo not given),-14%
COc1ccccc1N1CCN(/N=C\c2cccnc2)CC1,-1%
COc1ccc(Cc2nc(-c3ccccn3)no2)cc1,-3%
CCN(CC(=O)Nc1ccc(NC(C)=O)cc1)C(=O)Cc1cccc2ccccc12,-16%
CC(=O)Oc1ccc(NC(=O)CCC2CCCCC2)c(C(=O)O)c1,-5%
COc1ccc(NC(=O)CN(C)S(=O)(=O)c2ccc3[nH]c4c(c3c2)CCCC4)cc1OC,12%
O=S(=O)(Nc1ccc2c(c1)OCO2)c1ccccc1,-16%
CC12CCC(=O)N1C(C(=O)Nc1cc(S(=O)(=O)N3CCCCCC3)ccc1OCC(F)(F)F)CS2 (stereo not given),16%
CCOC(=O)c1cc(CC)sc1NC(=O)CCC(=O)O,-2%
CN(CCCC(=O)NCCc1ccccc1)S(=O)(=O)c1ccc([N+](=O)[O-])cc1,-16%
CCN(CC)S(=O)(=O)c1cccc(C(=O)NC(C(=O)NNC(=O)c2ccccc2F)C(C)C)c1 (stereo not given),-17%
CC1(C)C2([N+](=O)[O-])CN3CC1([N+](=O)[O-])CN(C2)C3c1ccc(O)c(O)c1 (stereo not given),3%

# 5 compounds picked at random from those above, as already listed:
SMILES,VDR inh
COc1ccc(S(=O)(=O)N2CC(C(=O)O)Oc3ccccc32)cc1 (stereo not given),-14%
CC(=O)Oc1ccc(NC(=O)CCC2CCCCC2)c(C(=O)O)c1,-5%
CC(C)(C=O)C1=CC(=O)c2ccccc2C1=O,45µM*
CC1(C)C2([N+](=O)[O-])CN3CC1([N+](=O)[O-])CN(C2)C3c1ccc(O)c(O)c1 (stereo not given),3%
Cc1ccc2nc(N3CCN(C(=O)C4COc5ccccc5O4)CC3)sc2c1 (stereo not given),-2%

# Part of the list above in order of heavy-atom count, highest first.
SMILES,VDR inh
Cc1ccc2nc(N3CCN(C(=O)C4COc5ccccc5O4)CC3)sc2c1 (stereo not given),-2%
COc1ccc(Cn2cnc3c(NS(C)(=O)=O)c(C)c(C)cc32)cc1,0%
CCC(Oc1ccccc1)C(=O)Nc1ccsc1C(=O)OC (stereo not given),-6%
COc1ccc(Cc2nc(-c3ccccn3)no2)cc1,-3%
CC(C)(C=O)C1=CC(=O)c2ccccc2C1=O,45µM*

# Going on with the list.
SMILES,VDR inh
COc1cccc(NC(=O)CN(C)C(=O)c2cccc(S(=O)(=O)N3c4ccccc4CC3C)c2)c1 (stereo not given),-2%
COc1ccc(C)cc1S(=O)(=O)N1CCCCC1,-1%
O=C1CCSC2(C(=O)N(Cc3ccc(F)cc3)c3ccccc32)N1c1ccc(F)c(F)c1 (stereo not given),?
CCOC(=O)c1oc2ccc(S(=O)(=O)n3nc(-c4cc(OCC)c(OCC)c(OCC)c4)cc3N)cc2c1C,-5%
OCC1CCCCN1C(=S)Nc1cccc(Cl)c1 (stereo not given),-8%
CSc1cccc(NC(=O)C2CCCN2S(=O)(=O)c2ccc3c(c2)CCC(=O)N3)c1 (stereo not given),-9%
Cc1cc(C)c(C(=O)COC(=O)CNC(=O)c2ccccc2C)c(C)c1,-9%
CC(C(=O)NN)n1nnc(N2CCOCC2)n1 (stereo not given),-7%
O=C(NCCc1ccccc1)c1ccc(Cn2c(=O)c3cccn3c3cccnc32)cc1,1%
O=C(NCc1cccs1)C(=O)c1c[nH]c2ccccc12,-4%
CSc1ccc(/C=C/C(=O)OCC(=O)c2ccc[nH]2)cc1,-14%
CCOc1ccc(N=c2cc(-c3ccc(OC)cc3)oc3ccccc23)cc1,-8%
COc1ccc(-c2cc3c(=O)n(CC(=O)NCc4ccc(C)cc4)ncn3n2)cc1,-5%
Cc1ccc(CN(C(=O)COc2ccccc2[N+](=O)[O-])c2ccccn2)o1,17%
Fc1ccc(NC(=S)Nc2ccc(F)c(Cl)c2)cc1Cl,-17%
COc1ccc(S(=O)(=O)N(C)CC(=O)Nc2ccc3c(c2)OCCO3)cc1,-4%
Cc1ccc(NC(NC(=O)c2ccccc2[N+](=O)[O-])C(Cl)(Cl)Cl)cc1 (stereo not given),7%
O=C(COc1cccc(F)c1)Nc1ccc2[nH]c(=O)[nH]c2c1,-4%
Cc1cn2c(=O)cc(COc3cccc(NC(=O)c4ccccc4C)c3)nc2s1,-12%
C=CCSC1=C(C#N)C(c2ccccc2OCC)C(C#N)C(=O)N1 (stereo not given),-19%

# Reformatted: 3 of the compounds above
SMILES	VDR inh
C=CCSC1=C(C#N)C(c2ccccc2OCC)C(C#N)C(=O)N1 (stereo not given)	-19%
O=C(NCCc1ccccc1)c1ccc(Cn2c(=O)c3cccn3c3cccnc32)cc1	1%
COc1ccc(S(=O)(=O)N(C)CC(=O)Nc2ccc3c(c2)OCCO3)cc1	-4%

# (continued)
SMILES,VDR inh
CCN(CC)c1ccc(S(=O)(=O)N2CCOCC2)cc1NC(=O)CSc1nnc(N)s1,-11%
CCCc1nc(N)sc1C(=O)OCC,-6%
Nc1c(C(=O)c2ccc(F)cc2)oc2ccccc12,-9%
Cc1nnc(SCC(=O)N(C)CC(=O)Nc2ccc(F)cc2)n1Cc1ccccc1,-7%
CCOC(=O)C1CCN(C(c2ccccc2)c2c(O)cc(C)n(Cc3ccco3)c2=O)CC1 (stereo not given),11%
CC(C)CC(=O)Nc1ccc(C(=O)COC(=O)C2CCC2)cc1,-3%
CCN1C(Nc2ccccc2)=NC[C@@H]1CC(C)C,5%
Cc1ccc(NC(=O)Cn2c(O)c(N=NC(N)=O)c3ccccc32)cc1,-3%
CC1CCCCN1Cc1c(O)ccc2c(=O)c(-c3ccc(Cl)cc3Cl)coc12 (stereo not given),-10%
C[C@H](O)Cc1cn(-c2cc3cc(C#Cc4ccsc4)ccc3oc2=O)nn1,-13%
CSc1ncc(C(=O)Nc2cc(C)ccc2C)c(C)n1,8%
CCN(CC)C(=O)CSc1nnc(-c2ccc(S(=O)(=O)N3CCCC3)cc2)o1,4%
CC(C)(C)N1C(=O)[C@H]2[C@@H](c3ccc(Br)cc3)N3C(=O)N(c4cccc(Cl)c4)C(=O)[C@@]3(Cc3ccccc3)[C@H]2C1=O,-8%
COc1cc(C(=O)NCC(c2ccc(Cl)cc2)N2CCOCC2)cc(OC)c1OC (stereo not given),22%
COc1ccc(/C=N/n2c(C)nc3sc(C)c(C)c3c2=O)cc1,-3%
COc1cccc(-n2c(SCC(=O)NC3CCS(=O)(=O)C3)nc3ccccc3c2=O)c1 (stereo not given),?
Cc1nn(-c2ccccc2)c(C)c1/C=C/C(=O)OCC(=O)Nc1ccc(S(N)(=O)=O)cc1,-3%
O=C(Nc1ccc(F)cc1F)c1ccc2c(=O)n3c(nc2c1)CCCCC3,-13%
CCCCc1nc2ccccc2n2c(-c3ccc(C)cc3)c3c(=O)n(C)c(=O)n(C)c3c12,-4%
CNC1=CN=C(c2ccccc2)c2cc(Cl)ccc2N1,-15%
CCOC(=O)c1c(S(=O)(=O)N2CCN(c3cccc(C(F)(F)F)c3)CC2)c(C)n(C)c1C,-1%
COc1ccc2nc(-c3ccccc3)cc(C(=O)OCC(=O)N3CC(C)OC(C)C3)c2c1 (stereo not given),7%
c1ccc2c(c1)oc1c(Nc3ccc4c(c3)OCCO4)ncnc12,1%
CCOCCNC(=O)c1ccc2c3c(cccc13)CC2,-4%
Cc1cc(NCC(C)C)n2ncnc2n1,5%
COC(=O)C1(C#N)C(c2ccccc2)C1(C(=O)OC)C(=O)OC (stereo not given),-11%
Cc1cc2c(cc1C)/C(=N/NC(=O)c1ccccn1)CCC2,-3%
O=C(NCC(=O)N1CCCCCC1)c1ccc(OC(F)F)cc1,-15%
COC(=O)C1=C(C)NC(C)=C(C(=O)OC)C1c1ccco1,-3%
Cc1nn(CC(=O)Nc2ccc(Cl)cc2Cl)c(=O)c2ccccc12,-11%
CCOc1ncccc1C(=O)OCC(=O)c1ccc(OC)c(OC)c1,9%
CCc1noc(C)c1C(=O)Nc1nc(-c2ccc(F)cc2)c(C)s1,7%
O=S(=O)(Nc1cccnc1Cl)c1ccc2c(c1)OCCO2,6%
CCOc1ccccc1C1CC(=O)Oc2c1c(=O)n(C)c1ccccc21 (stereo not given),-7%
O=C(COC(=O)c1ccccc1O)NC(c1ccccc1)c1ccccc1,7%
CCn1cc(C(=O)NCCCN2CCCC(C)C2)c(=O)c2cc(S(=O)(=O)N(C)C3CCCCC3)ccc21 (stereo not given),-9%&-16%
COC(=O)C1Cc2c([nH]c3ccccc23)CN1C(C)=O (stereo not given),-1%
CCCS(=O)(=O)N1CCCC(C(=O)NCCN2CCOCC2)C1 (stereo not given),-7%
O=C(Nc1ccccc1)C1COc2ccccc2O1 (stereo not given),1%
COc1ccc(OC)c(N(C)S(=O)(=O)c2ccc3c(c2)N(C(C)=O)CCO3)c1,3%
CCOc1ccc(CC(=N)C2=C(O)CC(C)(C)CC2=O)cc1OCC,-24%
Cc1cc(NC(=O)CSc2nnc(COc3cccc(C)c3C)n2Cc2ccco2)no1,-4%
COc1cccc(-c2nccc(NCc3ccccc3)n2)c1,-21%
O=C(CSc1nnc2scc(-c3ccccc3)n12)c1ccc2c(c1)OCCO2,-11%
Oc1c(CNc2ccccc2)cc(COCc2ccccc2)c2cccnc12,11%
Cc1ccc2nc(CSc3nnc(NC(=O)C(C)C)s3)cc(=O)n2c1,6%
CCOc1ccc(/C=N/NC(=O)c2cc3ccccc3cc2OC)cc1,4%
Cc1cccc(C)c1NC(=O)CCCN1C(=O)C(c2ccccc2)Oc2cccnc21 (stereo not given),-2%
Cc1cccc(NS(=O)(=O)c2ccc(C)c(C(=O)NCC(c3cccs3)N(C)C)c2)c1 (stereo not given),-14%
COc1ccc(CC(=O)NC(CC(=O)O)c2ccc(OC)cc2)cc1 (stereo not given),1%
CN(C)c1ncc(S(=O)(=O)c2ccccc2)c(-c2ccc(Cl)cc2Cl)n1,8%
COC(=O)C12OCC34C(CC5C(C)=C(O)C(=O)CC5(C)C3C(O)C1O)OC(=O)C(OC(=O)C=C(C)C)C24 (stereo not given),-6%
CCOC(=O)C1CCCN(C(=O)/C=C/c2ccc(Cl)cc2)C1 (stereo not given),-17%
Cc1ccc(NC(=O)CSc2nc(C)c(Cc3ccccc3)c(=O)[nH]2)cc1C,-6%&13%
O=C(O)CCC(=O)/C=C/c1ccccc1,-2%
Cc1ccc(OCC(=O)Nc2ccc3c(c2)nc2n3CCOC2)cc1,10%
S=c1[nH]nc(C23CC4CC(CC(C4)C2)C3)n1Cc1ccco1,10%
CCC(C(=O)NC(C)CCc1ccco1)n1nc(C)n2c(cc3occc32)c1=O (stereo not given),-15%
O=C(Nc1ccc(-c2csc(Nc3ccccc3)n2)cc1)c1cc([N+](=O)[O-])cc(C(F)(F)F)c1,9%
COc1ccc2nc(Nc3nc(CSc4ccc(C)cc4)cc(=O)[nH]3)nc(C)c2c1,-17%
Cc1c(C(=O)N2CCCC2)oc2c1-c1nn(CC(=O)NCc3ccc(OC(C)C)cc3)cc1CC2,2%
Cc1ccc(C)c(N(CC(=O)NC2CCCC2)C(=O)c2cc3cc4cc(C)ccc4nc3s2)c1,-14%

# By substructure: the compounds so far containing bromine
SMILES,VDR inh
CCOC(=O)c1ccc(NC(=O)c2nn(C)cc2Br)cc1,2%
CC(C)(C)N1C(=O)[C@H]2[C@@H](c3ccc(Br)cc3)N3C(=O)N(c4cccc(Cl)c4)C(=O)[C@@]3(Cc3ccccc3)[C@H]2C1=O,-8%
